# Screening results deposited in PubChem BioAssay by ICCB-Longwood Screening Facility, Harvard Medical School.
# MenB inh: inhibitors of Mycobacterium tuberculosis MenB enzyme | inhibition, %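 (about 12 µg/mL by stock and volumes)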 | AID 540299 | 0.43% of 100,000 active | MenB enzyme assay, absorbance read-out; some hits fall short of the stated cut;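 active = mean of two replicates above 30%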;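 note: 0% = no compound and 100% = wells with inactive enzyme; the first replicate is given; strong numbers were not always called active; inactives centre near -10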
# Target sequence (P9WNP5 whole entry, looked up): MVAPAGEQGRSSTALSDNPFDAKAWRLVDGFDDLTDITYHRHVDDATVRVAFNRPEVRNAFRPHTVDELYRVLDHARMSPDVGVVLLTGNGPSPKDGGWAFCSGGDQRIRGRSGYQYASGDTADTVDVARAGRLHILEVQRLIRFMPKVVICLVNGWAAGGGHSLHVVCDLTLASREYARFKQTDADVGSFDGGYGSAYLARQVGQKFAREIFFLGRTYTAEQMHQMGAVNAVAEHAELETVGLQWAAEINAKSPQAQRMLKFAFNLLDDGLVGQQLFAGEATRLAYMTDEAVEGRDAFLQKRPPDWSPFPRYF
# PV pol inh: inhibitors of poliovirus RNA polymerase binding and polymerization; P03300; poliovirus polymerase elongation, fluorescence polarization; stronger effect = lower value; % elongation, % (compound at 16.7 µg/mL); 0.66% of 150,000 active; AID 588519; in the data active = % elongation below about 90%; note: some results filed as inactive read as strong as hits
# Target sequence (P03300 1749-2209 limits assumed): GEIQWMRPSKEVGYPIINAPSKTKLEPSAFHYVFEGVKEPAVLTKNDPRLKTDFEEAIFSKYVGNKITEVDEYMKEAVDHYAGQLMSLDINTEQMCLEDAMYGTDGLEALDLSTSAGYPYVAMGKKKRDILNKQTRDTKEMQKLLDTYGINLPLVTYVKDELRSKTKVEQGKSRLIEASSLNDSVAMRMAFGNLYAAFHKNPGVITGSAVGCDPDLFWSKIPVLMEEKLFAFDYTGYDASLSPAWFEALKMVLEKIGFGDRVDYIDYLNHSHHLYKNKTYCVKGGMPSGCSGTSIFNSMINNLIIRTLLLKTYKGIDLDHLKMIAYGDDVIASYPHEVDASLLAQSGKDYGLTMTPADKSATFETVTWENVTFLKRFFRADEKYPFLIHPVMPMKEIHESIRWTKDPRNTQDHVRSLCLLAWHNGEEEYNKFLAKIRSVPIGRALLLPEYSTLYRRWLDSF
# MbtI inh: inhibitors of Mycobacterium tuberculosis siderophore enzyme MbtI | 0.89% of 100,000 active | purified MbtI enzyme, fluorescence intensity read-out | inhibition, %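 (about 17 µg/mL by stock and volumes)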 | P9WFX0;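 active = above 50% in both replicates, above 80% if mildly self-fluorescent; inactive = the rest, strongly fluorescent compounds included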;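 note: 0% = mean of negative and 100% = mean of positive controls; one replicate is shown; some compounds called inactive have numbers as strong as hits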
# PV pol inh intensity: recorded beside PV pol inh, whose call it bears; % elongation; measured here: total intensity read-out; formula for this scale not given here;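 total fluorescence in place of polarization; lower means less elongation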
# Active calls of the source: *; . = no result given. The order is random. Share with any hit: about 1.8%.
SMILES,MenB inh,PV pol inh,PV pol inh intensity,MbtI inh
C=CCN1C(=O)C2C(C(=O)NC)C3C=CC2(O3)C1C(=O)NC1CCCCC1 (configuration not stated),-54,104,99,-9
COc1ccc(NC(=O)COc2ccc(C)cc2)cc1,-4,102,102,4
S=C1NCN(CCc2ccccn2)CN1,0,99,95,-3
COc1ccc(/C=N/c2n[nH]c(N)n2)cc1,-5,104,102,-1
CN(CCc1ccccn1)Cc1ccccn1,-4,99,93,14
O=C(C1CCCO1)N1CCNCC1 (configuration not stated),10,97,105,16
Clc1ccccc1CNC12CN3CN(CN(C3)C1)C2,6,101,104,0
C=CCSc1nc(Nc2ccc(Cl)cc2)c2cnc(N3CCOCC3)nc2n1,8,101,104,-3
COc1ccc(NC2=Nc3ccccc3CC2)cc1,-14,100,96,7
Nc1ccccc1Sc1c(Cl)cncc1Cl,0,101,101,1
O=C(O)C1(c2ccccc2)CC1,12,98,102,1
O=C(Cn1nnc2ccccc21)Nc1cc(C(F)(F)F)ccc1Cl,-23,100,100,-9
O=C(Nc1ccc(I)cc1C(=O)NCCN1CCOCC1)c1ccco1,-19,101,104,-11
O=C1NC2(CCCC2)N=C1c1ccccc1,-2,104,106,1
CCN(CC)c1ccc(/C=C/C#N)cc1,-114,102,100,.
O=C(COC(=O)c1ccc(S(=O)(=O)C(F)F)cc1)c1ccc2c(c1)OCCO2,-8,97,93,-41
C=CCSc1nnc(-c2cccnc2)n1Cc1ccccc1,8,102,100,3
COc1cc(CSc2nnnn2-c2ccc(C)cc2C)cc(OC)c1OC,-5,103,109,-2
CCCn1c(SCc2c(C(=O)OCC)oc3ccccc23)nnc1-c1ccncc1,-17,104,116,-11
COc1ccc(C(=O)n2ccc(-c3cccs3)n2)cc1OC,14,100,104,0
CC1CN(CC(=O)Nc2c(Cl)cccc2Cl)CC(C)O1 (configuration not stated),-24,105,95,-17
N#CCCn1cc(C=C(C#N)C#N)c(-c2ccccc2)n1,-11,98,99,-3
NC(=O)c1ccc2ccccc2c1,-11,98,90,.
CC/C(=N\N=c1/sc2ccccc2n1C)c1ccc(OC)c(OC)c1,-27,96,95,4
CC(=O)OCc1cn2ccccc2n1,.,102,100,94

# Two entries from above, as labelled records:
CC1CN(CC(=O)Nc2c(Cl)cccc2Cl)CC(C)O1 (configuration not stated)
  MenB inh: -24 | PV pol inh: 105 | PV pol inh intensity: 95 | MbtI inh: -17
N#CCCn1cc(C=C(C#N)C#N)c(-c2ccccc2)n1
  MenB inh: -11 | PV pol inh: 98 | PV pol inh intensity: 99 | MbtI inh: -3

# (cont.)
SMILES,MenB inh,PV pol inh,PV pol inh intensity,MbtI inh
C=CCN1C(=O)c2[nH]nc(-c3ccccc3O)c2C1c1ccc(O)cc1 (configuration not stated),19,100,103,-25
Cc1ccc(Nc2cc(C)nn2-c2ccccc2)cc1,-21,101,109,2
Cc1ccc(C)n1-c1ccc(C(=O)N2CCC(=O)CC2)cc1,-68,99,96,-11
Cc1nnc2c(N3CCCC3)nc3ccccc3n12,-3,99,93,5
Cc1cccc(-c2cc(C(=O)N3CCN(C(=O)c4ccco4)CC3)c3ccc(Cl)c(C)c3n2)c1,-25,104,105,30
CC(=O)Nc1ccc(N=Nc2ccc(O)cc2)cc1,-234,105,103,13
CCn1cc(NC(=O)NC2CCc3ccccc32)c(=O)c2ccc(C)nc21 (configuration not stated),-1,102,102,-35
CC1CCc2sc(C(=O)NN)cc2C1 (configuration not stated),4,.,.,8
O=C(NC1CCCC1)N(Cc1ccc2c(c1)OCO2)C1CCN(Cc2ccccc2)CC1,-26,106,100,-5
COc1c(Cl)ccc(Cl)c1C(=O)NC(=S)N1CCOCC1,-8,97,102,-5
CCN(CC)c1nc(Nc2ccc(Cl)cc2)nc(OCC#N)n1,-5,101,101,10
CC(=NCCN1CCNCC1)C1=C(O)CC(C)(C)CC1=O,-1,101,104,-3
CC(c1cccnc1)N(C(=O)Nc1ccccc1)C1CCCCC1 (configuration not stated),5,101,103,0
CC(C)OC(=O)c1ccc(COC(=O)CCc2nc3ccccc3[nH]c2=O)cc1,16,100,103,-3
O=C(NC1CCCCCC1)c1cccc2c1C(=O)N(C1CCCCC1)C2,-7,101,105,-15
O=C(O)CN(CCN(CC(=O)O)CC(=O)O)CCN(CC(=O)O)CC(=O)O,-14,101,97,-20
Cc1ccc(Nc2nc(Cl)nc(N(C)C#N)n2)cc1,-5,103,101,-7
NC(=O)c1cc[n+](CC(=O)N2CCCCCC2)cc1,-10,102,103,-4
C[n+]1cc(-c2ccc3ccccc3n2)cc2ccccc21,-9,99,103,9
O=C(O)CSCCc1ccccn1,14,102,102,-14
O=C(Nc1ccccc1N1CCOCC1)c1cccc(N2C(=O)c3ccccc3C2=O)c1,-34,103,99,-12
CN(C)CCCNc1nn2c(=O)c3ccccc3nc2c2ccccc12,-4,82*,83*,-103
CCN(CC)CCNc1ccc2nnc(CCNC(=O)c3ccc(C)cc3)n2n1,7,102,106,-4
CCOC(=O)c1cccc(NC(=O)c2ccc3c(c2)C(=O)N(Cc2ccco2)C3=O)c1,-3,104,101,-8
O=C(C1CC1)N1c2ccccc2Sc2ccccc21,-8,102,103,-16

# Four records drawn at random from the list so far, as already listed:
SMILES,MenB inh,PV pol inh,PV pol inh intensity,MbtI inh
O=C(Nc1ccccc1N1CCOCC1)c1cccc(N2C(=O)c3ccccc3C2=O)c1,-34,103,99,-12
CCOC(=O)c1cccc(NC(=O)c2ccc3c(c2)C(=O)N(Cc2ccco2)C3=O)c1,-3,104,101,-8
Cc1cccc(-c2cc(C(=O)N3CCN(C(=O)c4ccco4)CC3)c3ccc(Cl)c(C)c3n2)c1,-25,104,105,30
COc1c(Cl)ccc(Cl)c1C(=O)NC(=S)N1CCOCC1,-8,97,102,-5

# The main list resumes, repeating the three entries before the break.
SMILES,MenB inh,PV pol inh,PV pol inh intensity,MbtI inh
CCN(CC)CCNc1ccc2nnc(CCNC(=O)c3ccc(C)cc3)n2n1,7,102,106,-4
CCOC(=O)c1cccc(NC(=O)c2ccc3c(c2)C(=O)N(Cc2ccco2)C3=O)c1,-3,104,101,-8
O=C(C1CC1)N1c2ccccc2Sc2ccccc21,-8,102,103,-16
COC(=O)c1cc(Cl)c(NC(=O)C(C)C)cc1OC,-4,.,.,4
O=C(OCc1nc2ccccc2s1)c1ccc(S(=O)(=O)N2CCCC2)cc1,0,106,108,-8
COc1ccc(-c2noc(-c3ccccc3)n2)cc1,-20,102,103,-9
CC(C)N(C(=O)Cn1c(-c2ccco2)nc2ccccc21)c1ccccc1,.,102,105,-24
Cc1cc(C(=O)COc2cccc3c2OC(C)(C)C3)c(C)n1C1CC1,-19,100,99,12
CN(c1ccccc1)S(=O)(=O)c1cc(C(=O)NCCCN2CCOCC2)ccc1Cl,-9,102,108,-1
CC1CCC(OC(=O)CCC(=O)Nc2ccc(Br)cc2)CC1 (configuration not stated),1,104,110,.
Cc1nn(-c2ccccc2)c(Cl)c1C(=O)OCC(N)=O,-17,103,101,-16
COc1ccc2c(c1)CCc1c(C(=O)Nc3cnn(Cc4ccc(F)cc4)c3)noc1-2,-5,103,104,-15
O=C(CN(C(=O)c1ccc(Cl)nc1)c1ccccc1)NCC1CCCO1 (configuration not stated),12,102,103,-11
Cc1nc2ccccn2c1C(=O)OCC#N,-14,103,97,3
O=C(c1ccc(C(F)(F)F)cc1)n1ccc(-c2cccs2)n1,4,105,114,37
CC(C)N(C(=O)c1cnc2n(c1=O)CCS2)C(C)C,-5,100,103,10
O=S(=O)(NC1c2ccccc2Oc2ccccc21)c1ccc2ccccc2c1,-19,106,103,.
CCOc1ccc(CCNC(=O)c2nnc(CS(=O)(=O)c3ccccc3)o2)cc1OCC,-34,106,97,-10
O=C(O)c1ccc2c(c1)-c1ccccc1C2,1,104,108,36
CCN(CC)C(=O)CSc1nnc(COc2cccc(OC)c2)n1CC,-14,106,105,-11
CC(C)NC(=O)N1CC2CCCN2c2ccccc21 (configuration not stated),2,97,95,-13
CC(C)C(c1nnnn1C1CCCC1)N1CCOCC1 (configuration not stated),-17,102,101,0
c1ccc(CCNc2nc3ccccc3s2)cc1,.,100,102,-4
Cc1cc(NC(=O)CSc2nc3ccsc3c(=O)n2CCCC(=O)NCc2ccc3c(c2)OCO3)n[nH]1,-22,103,102,-7
Cc1cc(C2=NNC(=Nc3ccccc3)SC2)c(C)n1Cc1ccco1,-34,96,100,-6
c1ccc(-c2nn3c(C4COc5ccccc5O4)nnc3s2)nc1 (configuration not stated),-35,92,88,57*
CN(NC(=S)Nc1ccccc1)c1ccc(Cl)cc1,-31,109,109,.
O=C(NC1CCCCC1O)c1ccccc1C(F)(F)F (configuration not stated),0,102,107,166

# Whole records, quoted from the list. Order of values: MenB inh | PV pol inh | PV pol inh intensity | MbtI inh
# Profile of `c1ccc(-c2nn3c(C4COc5ccccc5O4)nnc3s2)nc1` (configuration not stated) : -35 | 92 | 88 | 57*
# Profile of `COc1ccc(-c2noc(-c3ccccc3)n2)cc1` : -20 | 102 | 103 | -9
# Profile of `COc1ccc2c(c1)CCc1c(C(=O)Nc3cnn(Cc4ccc(F)cc4)c3)noc1-2` : -5 | 103 | 104 | -15
# Profile of `CC(C)C(c1nnnn1C1CCCC1)N1CCOCC1` (configuration not stated) : -17 | 102 | 101 | 0
# Profile of `Cc1cc(C2=NNC(=Nc3ccccc3)SC2)c(C)n1Cc1ccco1` : -34 | 96 | 100 | -6

# Next records:
SMILES,MenB inh,PV pol inh,PV pol inh intensity,MbtI inh
O=S(=O)(/C=C/c1ccccc1)NC1CCCCC1,6,103,106,-9
N#Cc1ccc(CSCC(=O)NN=C2CCCC2)cc1,-23,104,103,-16
Cc1cc(C)cc(NC(=O)N2CCC(CN3CCCCC3)CC2)c1,1,99,100,-11
COc1ccc(C(CNc2ncnc3sccc23)N2CCCC2)cc1 (configuration not stated),-13,112,123,6
COc1cc(/C=C2\N=C(SC)SC2=O)cc(OC)c1OC(C)=O,-18,101,104,-19
NC(N)=N/N=C/c1ccco1,0,102,101,26
Cc1ccc(CNC(=O)Cn2ccn(Cc3ccccc3)c(=O)c2=O)cc1,-31,107,98,-6
COc1ccc2c(c1)C(=NN)c1cc(OC)ccc1-2,-29,101,90,3
O=C(NC(Cc1c[nH]c2ccccc12)C(=O)O)c1cccs1 (configuration not stated),.,101,104,-3
CNC(=O)c1sc(NCc2ccco2)nc1C,-25,77*,78*,98*
CCOC(=O)C1CCN(C(=O)COc2ccc(S(=O)(=O)N3CCCCC3)cc2Cl)CC1,-33,106,98,-14
CCOc1ccc(N=C2NC(=O)C(CC(=O)NC(N)=O)S2)cc1 (configuration not stated),-4,.,.,-5
Cc1nn(-c2ccccc2)nc1C(=O)NC1CCS(=O)(=O)C1 (configuration not stated),6,104,103,108
